Screens as filed in PubChem BioAssay.
ClpP mod: qHTS Assay for Activators of ClpP; Potency, µM (top dose mostly 57.5 µM), for the others: at the top dose activity change, negative = active; hit rate 1.9% among 340,000; ATP-dependent Clp protease proteolytic subunit (Bacillus subtilis (strain 168)), P80244; AID 651965, 2013; purified B. subtilis ClpP, FRET peptide cleavage, 20 min; active = well fitted falling curve with a large enough effect; inconclusive = small, poorly fitted or top-dose-only effect; inactive = no such curve, though single readings can be large or run the other way; note: potency is the fitted concentration of half-maximal effect; the source files actives as falling curves though it sought activators and does not explain the sign; nearly all actives have a fitted effect of over 65% in size; many hits overshoot -100%
Target sequence (P80244 whole entry, looked up): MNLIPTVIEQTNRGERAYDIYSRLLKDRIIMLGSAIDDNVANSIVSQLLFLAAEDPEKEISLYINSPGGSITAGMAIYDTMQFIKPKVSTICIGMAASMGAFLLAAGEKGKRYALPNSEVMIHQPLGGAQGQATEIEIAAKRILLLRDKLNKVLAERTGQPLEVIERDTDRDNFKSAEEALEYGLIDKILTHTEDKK
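ClpP 10 microg/mL final, pH 8 Tris/KCl buffer with BSA, glycerol, Tween-20; compound pinned in; FRET-FV substrate; RT 20 min; Ex320/Em430; ΔFRET vs ADEP 5.8 microM, DMSO, no enzyme.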
TRPV1 potentiator: enhances activation of the human vanilloid receptor TRPV1; AID 540277; hit rate 0.02% among 320,000; Q8NER1; potentiation, % at 8.33 µM; TRPV1-expressing cells, Fluo-8 calcium influx, capsaicin EC20 potentiation; host cell line not named in the record; control for the full effect not named in the record; active means potentiation above 80%; inconclusive means 30% to 80%; inactive means below 30%; note: 0% is about no effect
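Fluo-8 calcium influx in TRPV1-expressing cells, kinetic read (ex 480/em 520 nm). Compound added and read 3 min for agonist activity, followed by capsaicin at EC20 final and 2 min further read for enhancement.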
Menin-MLL FL inh: inhibitors of human menin-MLL interaction, wild-type MLL peptide. Fluorescence polarization, fluorescein-MLL peptide displacement from menin. FP activity change, % at 61.4 µM. 290,000 tested, under 10 active. AID 1766; inconclusive = falling polarisation curve, or a change in total fluorescence; inactive = total fluorescence flat and polarisation flat or rising; no compound was filed as active; the % refers to the polarisation; negative = inhibition;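 note: % of control where 0% means no effect; inhibitors lower the polarisation; unlabelled MLL peptide was the positive control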
PINK1 modulator: modulators of PINK1 expression. PINK1 immunofluorescence, high-content cytometry, 24 h. hit rate 0.2% among 410,000. Potency, µM (series often up to 76.6 µM), for inactives: at the top dose activation (PINK1 increase), usual class: activators; active = well fitted activation curve with a large enough effect; inconclusive = small, poorly fitted or top-dose-only effect; inactive = flat fitted curve, though single readings scatter; cell line not stated here;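 note: potency is the fitted concentration of half-maximal effect; % of control where 0% means no effect; nearly all actives have a fitted effect of over 65% in size; a mitochondrial uncoupler was the plate control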
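Stable cell line, 250 cells/well, 12 h attachment; compounds pinned at 5 concentrations, 24 h; CCCP control. Fixed with nuclear dye, primary antibodies 12 h at 10 degrees C, secondary plus cell stain; laser-scanning cytometer read.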
TRPML1 agonist: agonists of human TRPML1 channel; TRPML1-expressing cells, Ca2+ dye fluorescence, FDSS; host cell line not named in the record; reference of the full effect not given here; activation, % (concentration not given with the values); hit rate 0.12% among 410,000; in the data active = activation above about 50%; inconclusive = about 30% to 50%; inactive = below about 30%; note: 0% is about no effect; the text of the record puts the active cut at 80%
Target sequence (Q9GZU1 whole entry, looked up): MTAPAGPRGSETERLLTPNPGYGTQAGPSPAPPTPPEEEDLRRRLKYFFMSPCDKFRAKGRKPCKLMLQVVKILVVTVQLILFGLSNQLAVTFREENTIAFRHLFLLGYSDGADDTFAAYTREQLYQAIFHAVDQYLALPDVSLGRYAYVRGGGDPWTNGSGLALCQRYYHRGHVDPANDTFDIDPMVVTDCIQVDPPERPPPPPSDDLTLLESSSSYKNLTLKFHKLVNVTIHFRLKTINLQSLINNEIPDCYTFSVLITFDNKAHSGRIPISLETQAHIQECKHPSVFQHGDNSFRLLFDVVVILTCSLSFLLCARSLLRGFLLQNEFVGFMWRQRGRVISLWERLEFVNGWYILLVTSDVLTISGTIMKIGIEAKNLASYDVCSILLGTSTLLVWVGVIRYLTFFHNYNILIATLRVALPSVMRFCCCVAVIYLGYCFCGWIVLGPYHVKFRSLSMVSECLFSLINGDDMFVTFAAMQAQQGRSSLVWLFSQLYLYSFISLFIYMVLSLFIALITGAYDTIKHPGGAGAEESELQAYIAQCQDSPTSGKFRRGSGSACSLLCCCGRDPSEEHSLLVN
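Kinetic FDSS Ca2+ read in Tet-induced TRPML1-DL cells (ABD Ca8 dye plus quencher, 45-90 min RT loading): baseline, then compound, then 110 s agonist window; EC80 agonist 54-4 at 4uM final added afterwards for a 110 s antagonist window.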
Sfp inh: blocks B. subtilis Sfp PPTase activity. Q9F4F7. Biochemical Sfp PPTase activity, qHTS. Potency, µM, for the others: max response, negative = inhibition, most hits filed as inhibitors. hit rate 3.5% among 310,000. AID 1490; active = well fitted inhibition curve with a large enough effect; inconclusive = small, poorly fitted or top-dose-only effect, or another doubt; inactive = no such curve, though single readings can be large or run the other way;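 note: the enzyme is Sfp with the accession as filed and its product quenches rhodamine fluorescence; potency is the fitted concentration of half-maximal effect; 0% = enzyme reaction without inhibitor and -100% = no enzyme wells; top concentration of the series not given in the record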
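After 15 min at room temperature with compound, 15 nM Sfp received 5 uM rhodamine-CoA plus 12.5 uM BHQ-2-ybbR (50 mM Hepes pH 7.6, 10 mM MgCl2). Rate came from the fluorescence difference over 30 min, ex 525/em 598 nm.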
TRPML1 inh: human mucolipin-1 channel inhibition. Q9GZU1. TRPML1-inducible cells, Ca2+ dye fluorescence, FDSS; stronger effect = lower value; inhibition of EC80 agonist-evoked calcium signal. activity change, negative = inhibition, % (test concentration not listed). hit rate 0.02% among 390,000. AID 624415; in the data active means activity change below about -50%; inconclusive means about -30% to -50%; inactive means above about -30%;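 note: stimulus is agonist 54-4 at its EC80 concentration; % is set by controls: 0 for no effect and ±100 for the full control effect; compound concentration not given in the record; the text of the record puts the active cut at -80%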
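TRPML1-DL cells, Tet-induced overnight (~16 h, 37 °C) at 1,500 cells/well, were loaded with Ca8 no-wash dye plus quencher for 45-90 min at room temperature. Compounds were pinned during FDSS kinetic reading; agonist 54-4 at EC80 (4 uM final) then added.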
Numbers without * were called inactive; [ ] = dose if it differs, or a comment.

For COC(=O)C1=C(C)N(Cc2ccccc2)C(=NCC2CC2)N[C@H]1c1ccc(Br)cc1 the results were TRPV1 potentiator 10, Menin-MLL FL inh -0.9 and Sfp inh 56µM*.
For Cn1cnnc1SCC(=O)c1ccc2c(c1)OCCO2 the results were ClpP mod -0.6%, TRPV1 potentiator -2, Menin-MLL FL inh 5.0, PINK1 modulator 2.9%[38.3 µM], TRPML1 agonist 1.5, Sfp inh inconclusive and TRPML1 inh -7.
`Cc1ccc(N(CC(C)C)S(=O)(=O)c2nnc(NC(=O)c3cccs3)s2)cc1` gave ClpP mod -6.7%, PINK1 modulator 0.6%, TRPML1 agonist 2.6 and TRPML1 inh 0.
`Cc1cc(C)n(CCNC(=O)[C@H]2O[C@@H](n3ccc(N)nc3=O)[C@H](O)[C@@H]2O)n1` gave ClpP mod 0.1%, PINK1 modulator 0.3% and TRPML1 agonist -0.1.
For Cc1ccc(-c2cccc(CN3CCN(C(C)C)C(CCO)C3)c2)o1 (centres undefined) the results were ClpP mod 2.2%, TRPV1 potentiator -9, Menin-MLL FL inh -6.8, PINK1 modulator 0.6%, TRPML1 agonist 0.6, Sfp inh -20% and TRPML1 inh 11.
For Cc1cc(C)c(NC(=O)Cn2c(=O)n(CCc3ccccc3)c(=O)c3ccccc32)c(C)c1 the results were ClpP mod 1.8%, PINK1 modulator 0.3%, TRPML1 agonist -0.2 and TRPML1 inh 3.
For O=C(NCc1cccnc1)c1ccc([N+](=O)[O-])o1 the results were ClpP mod -0.7%, TRPV1 potentiator 3, Menin-MLL FL inh -1.5, PINK1 modulator 0.4%, TRPML1 agonist 0.1, Sfp inh -2% and TRPML1 inh -13.
`CCC(=O)N1CCN(c2ccccc2NC(=O)COc2cccc(C)c2C)CC1` gave ClpP mod -0.7%, TRPV1 potentiator -11, PINK1 modulator 0.8%, TRPML1 agonist 0.4, Sfp inh -4% and TRPML1 inh 41.
`CCOC(=O)N1CCN(C(=O)c2cn(C)c3ccc(S(=O)(=O)N(CC)CC)cc3c2=O)CC1` gave ClpP mod -2.5%, TRPV1 potentiator 14, Menin-MLL FL inh -1.0, PINK1 modulator 0.2%, TRPML1 agonist 0.1, Sfp inh 3% and TRPML1 inh -14.
Screening Cc1ccc(S(=O)(=O)N[C@@H](CC(C)C)C(=O)N2CCC(C(=O)N[C@@H](Cc3ccccc3)C(=O)O)CC2)cc1 returned ClpP mod 1.8%, TRPV1 potentiator 0, Menin-MLL FL inh 0.0, PINK1 modulator 0.5% and Sfp inh 16%.
For CC(C)[C@H](NC(=O)[C@H]1N2C(=O)c3ccccc3C2SC1(C)C)C(=O)NCc1ccco1 (some centres undefined) the results were ClpP mod 0.0%, TRPV1 potentiator -11, PINK1 modulator -0.5%, TRPML1 agonist -1.0, Sfp inh -25% and TRPML1 inh -17.
Screening Cc1cccc(C(=O)NC2CCN(C(=O)Nc3ccccc3C)CC2)c1 returned ClpP mod -1.9%, TRPV1 potentiator 9, Menin-MLL FL inh 1.1, PINK1 modulator 0.5%, TRPML1 agonist -0.9, Sfp inh 5% and TRPML1 inh 75.
For Cc1cc(C)cc(NC(=O)Oc2ccccc2N2CCCCC2)c1 the results were TRPV1 potentiator -5, Menin-MLL FL inh 1.6, PINK1 modulator 0.9%, TRPML1 agonist -0.2, Sfp inh 4% and TRPML1 inh -21.
Screening OCCCNc1nc(-c2ccc(Br)cc2)nnc1-c1ccc(Cl)cc1 returned ClpP mod 1.5%, TRPV1 potentiator -13, PINK1 modulator 0.1%, TRPML1 agonist -0.1, Sfp inh 2% and TRPML1 inh -3.
Screening O=C1C2C(c3ccccc3)CC=CC2[C@H](c2cccc([N+](=O)[O-])c2)N1Cc1ccccc1 (some centres undefined) returned ClpP mod -0.6%, TRPV1 potentiator 28, Menin-MLL FL inh -0.5, PINK1 modulator 0.3%, TRPML1 agonist 0.8, Sfp inh 2% and TRPML1 inh -6.
For CC1CCCCC12NC(=O)N(CC(=O)N1CCN(S(=O)(=O)/C=C/c3ccccc3)CC1)C2=O (centres undefined) the results were ClpP mod -1.0%, TRPV1 potentiator -4, PINK1 modulator 0.4%, TRPML1 agonist -0.9 and TRPML1 inh -13.
CC1CN(S(=O)(=O)c2cccc(C(=O)NCCCn3ccnc3)c2)CC(C)O1 (centres undefined) was read as ClpP mod 0.1%, TRPV1 potentiator 13, Menin-MLL FL inh -1.9, PINK1 modulator -0.9%, TRPML1 agonist -0.5, Sfp inh 9% and TRPML1 inh 11.
For Cc1ccc(-c2c3c(=O)n(C)c(=O)n(C)c3cn2-c2cc(C)ccc2O)cc1 the results were ClpP mod 3.5µM*, PINK1 modulator 7.3%, TRPML1 agonist -0.3 and TRPML1 inh 3.
Screening Cc1cccc(C)c1-n1nnnc1C(c1ccnc2ccccc12)N1CCN(C/C=C/c2ccccc2)CC1 (centres undefined) returned ClpP mod 1.6%, PINK1 modulator 0.5% and TRPML1 agonist 0.3.
For COc1cccc(-c2nn(-c3ccccc3)cc2C(=O)Nc2nccs2)c1 the results were ClpP mod -1.1%, TRPV1 potentiator 9, Menin-MLL FL inh 7.8, PINK1 modulator 3.1%, TRPML1 agonist 1.1, Sfp inh 7% and TRPML1 inh 31.
COc1ccc(S(=O)(=O)N(CC(=O)NCc2ccncc2)Cc2ccccc2)cc1 was read as TRPV1 potentiator -16, Menin-MLL FL inh 1.5, PINK1 modulator -1.3%, TRPML1 agonist 0.0, Sfp inh 21% and TRPML1 inh -5.
For O=C(COc1ccccc1)NC(=S)Nc1cccc2cc(O)ccc12 the results were ClpP mod 6.1%, TRPV1 potentiator 1, PINK1 modulator 4.8%, TRPML1 agonist 1.7, Sfp inh 20% and TRPML1 inh 8.
Screening Clc1nnc(Cl)c2c1ncn2Cc1ccccc1 returned ClpP mod -0.6%, TRPV1 potentiator 0, Menin-MLL FL inh 8.4, PINK1 modulator -1.3%, TRPML1 agonist 1.0, Sfp inh 20% and TRPML1 inh -11.
Screening O=C(COc1cc2oc(=O)c3c(c2cc1Cl)CCC3)NCCN1CCOCC1 returned ClpP mod 3.3%, TRPV1 potentiator 6, Menin-MLL FL inh -4.5, PINK1 modulator -0.4%, TRPML1 agonist -0.2, Sfp inh 3% and TRPML1 inh 12.
Screening Cc1cc(OCC(=O)Nc2nnc(C3CC3)s2)ccc1Cl returned ClpP mod 2.4%, PINK1 modulator 3.0%, TRPML1 agonist -0.9 and TRPML1 inh -14.
`CC1(C)CC(N2CCN(Cc3ccccc3)CC2)=CC(=[N+]2CCCCC2)C1` gave TRPV1 potentiator -4, Menin-MLL FL inh -0.2, PINK1 modulator inconclusive, TRPML1 agonist 2.5, Sfp inh 16% and TRPML1 inh 3.
C/C(=N/Oc1nc(C)cc(C)n1)c1ccc(Cl)cc1Cl was read as ClpP mod 6.8%, TRPV1 potentiator 22, Menin-MLL FL inh -2.0, PINK1 modulator -0.6%, TRPML1 agonist -1.9, Sfp inh -4% and TRPML1 inh -4.
Cc1ccc(C(=O)N2[C@@H]3CN(C)C(=O)[C@@]2(C)[C@H]2C(=O)N(Cc4ccccc4)C(=O)[C@@H]32)cc1 was read as ClpP mod -0.8%, PINK1 modulator -1.1%, TRPML1 agonist -0.8 and TRPML1 inh 11.
`NC(=O)C1=C[C@H](c2coc3ccccc3c2=O)C[C@H](OCc2ccc(CO)cc2)O1` gave ClpP mod 1.6%, TRPV1 potentiator 7, Menin-MLL FL inh -7.4, PINK1 modulator 0.8%, TRPML1 agonist 0.6, Sfp inh 26% and TRPML1 inh -15.
Cc1ccc(NC(=O)c2cnccn2)cc1S(=O)(=O)N(C)C was read as ClpP mod -1.4%, TRPV1 potentiator -12, Menin-MLL FL inh -6.1, PINK1 modulator 0.0%, TRPML1 agonist 1.4, Sfp inh 3% and TRPML1 inh 4.
For Cc1ccc(CNC(=O)COC(=O)c2ccc(S(=O)(=O)N(C)C)cc2)cc1 the results were TRPV1 potentiator -2, Menin-MLL FL inh 1.7, PINK1 modulator 2.2%, TRPML1 agonist 1.8, Sfp inh -10% and TRPML1 inh 34.
`CCOc1ccc(NS(=O)(=O)c2coc(C(N)=O)c2)cc1` gave ClpP mod 1.2%, TRPV1 potentiator -5, Menin-MLL FL inh 1.2, PINK1 modulator 1.2%, TRPML1 agonist 0.7, Sfp inh 9% and TRPML1 inh 8.
Screening Cc1ccc(S(=O)(=O)NC(=O)c2cc(C)n(CCCn3ccnc3)c2C)cc1 returned ClpP mod -3.4%, TRPV1 potentiator inconclusive, Menin-MLL FL inh 0.1, PINK1 modulator -0.8%, TRPML1 agonist -0.2, Sfp inh 18% and TRPML1 inh 1.
`Cc1ccc(OCC(=O)Nc2ccc(S(=O)(=O)N3CCN(C)CC3)cc2)cc1` gave ClpP mod -1.8%, TRPV1 potentiator -4, Menin-MLL FL inh 2.1, PINK1 modulator -0.8%, TRPML1 agonist -0.3, Sfp inh 7% and TRPML1 inh -10.
For COc1ccc(NC(=O)NCCCN2CCN(c3cc(C)ccc3C)CC2)cc1 the results were ClpP mod 0.6%, TRPV1 potentiator -14, Menin-MLL FL inh 1.7, PINK1 modulator 6.5%, TRPML1 agonist 0.3, Sfp inh 0% and TRPML1 inh 0.
Screening Cc1ccc(NC(=O)c2ccccc2NS(=O)(=O)c2ccc(Cl)s2)cc1S(=O)(=O)N1CCOCC1 returned ClpP mod -3.1%, TRPV1 potentiator -4, PINK1 modulator 40µM*, TRPML1 agonist -0.2, Sfp inh 0% and TRPML1 inh -9.
`CC(=O)O[C@H]1C(=O)[C@]2(C)[C@H]([C@H](OC(=O)c3ccccc3)[C@]3(O)C[C@H](OC(=O)[C@H](O)[C@@H](NC(=O)c4ccccc4)c4ccccc4)C(C)=C1C3(C)C)[C@]1(OC(C)=O)CO[C@@H]1C[C@@H]2O` gave ClpP mod -0.5%, PINK1 modulator 5.7%, TRPML1 agonist -0.3 and TRPML1 inh 44.
Screening CN(C)C(=O)c1ccc(-c2nccc(NCc3ccccc3)n2)cc1 returned Menin-MLL FL inh 0.7, PINK1 modulator 5.4% and Sfp inh 6%.
